# RanGTP-Imp inh = inhibitors of RanGTP-importin-beta interaction, primary screen, biochemical, FRET, CFP-Ran, YFP-importin-beta, homogeneous; Ran GTPase (GTP-bound) - importin-beta complex; cell-free CFP-Ran/YFP-importin-beta FRET ratio; inhibition, % (test concentration not listed); 300,000 compounds, 1.1% hits; AID 2216, 2009;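 active means most replicates above 15%; inconclusive means exactly half above 15%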;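 further: 0% = DMSO wells and 100% = Ran loaded with GDP instead of GTP; wells of about 40 µL received 100 nL stock; the first replicate is given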
# ALR inh = inhibitors of human ALR sulfhydryl oxidase, primary screen, biochemical, H2O2 detection, HRP-luminol luminescence, single point. purified ALR, DTT oxidation. inhibition, % (no concentration beside the values). 290,000 compounds, 3.8% hits;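 active means mean and each replicate at 75% or more; inconclusive means only one of the two met; inactive means neither met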;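 further: stock transfer was 7.5 nL into about 7.5 µL; 0% = neutral wells and 100% = wells with inactivated enzyme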
# Target sequence (P55789 whole entry, looked up): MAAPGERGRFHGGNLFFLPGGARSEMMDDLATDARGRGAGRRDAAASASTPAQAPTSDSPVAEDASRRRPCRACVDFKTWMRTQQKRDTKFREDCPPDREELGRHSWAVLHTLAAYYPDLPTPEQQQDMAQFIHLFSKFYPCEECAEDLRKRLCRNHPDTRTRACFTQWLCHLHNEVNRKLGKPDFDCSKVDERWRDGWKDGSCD
# MLL AF4-AF9 inh = inhibitors of AF4 peptide binding to AF9, primary screen, biochemical, AlphaScreen, biotin-AF4 peptide, FLAG-AF9, single point | 350,000 compounds, 0.47% hits | AID 651704, 2012 | Protein AF-9 (Homo sapiens), P42568 | inhibition, % at 10 µM;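 active means every replicate reaching a set inhibition limit, whatever the replicate mean, cut at about 25% in these data; inconclusive means mean inhibition reaches that limit but some replicates miss it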;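 further: 0% = plate neutral control median and 100% = total signal loss; the record names both 10 and 1 µM as test concentration; the first replicate is given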
# Target sequence (P42568 whole entry, looked up): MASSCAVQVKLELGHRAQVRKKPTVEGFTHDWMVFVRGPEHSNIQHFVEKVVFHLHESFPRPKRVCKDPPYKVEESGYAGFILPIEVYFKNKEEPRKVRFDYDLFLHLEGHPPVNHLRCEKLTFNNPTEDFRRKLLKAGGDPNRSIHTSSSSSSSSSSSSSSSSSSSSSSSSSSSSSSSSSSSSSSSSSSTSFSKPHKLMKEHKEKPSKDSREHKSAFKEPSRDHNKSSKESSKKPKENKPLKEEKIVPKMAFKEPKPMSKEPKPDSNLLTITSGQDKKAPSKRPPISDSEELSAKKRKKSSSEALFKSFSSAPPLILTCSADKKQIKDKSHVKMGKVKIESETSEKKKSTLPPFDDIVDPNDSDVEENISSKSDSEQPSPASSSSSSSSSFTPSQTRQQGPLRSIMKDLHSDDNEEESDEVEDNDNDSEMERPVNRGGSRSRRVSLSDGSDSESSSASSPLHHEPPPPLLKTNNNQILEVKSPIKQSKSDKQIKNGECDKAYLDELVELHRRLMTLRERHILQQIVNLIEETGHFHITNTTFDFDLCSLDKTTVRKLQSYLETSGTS
# Calb FLC = C. albicans growth inhibition with fluconazole, primary screen, CaCi-2 strain, Alamar Blue fluorescence | C. albicans CaCi-2 (fluconazole-resistant clinical isolate) + fluconazole, 48 h | growth inhibition, % (test concentration not listed) | 300,000 compounds, 0.57% hits | AID 1979, 2009;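 active means most replicates above 75%; inconclusive means exactly half above 75%; inactive means most below 75%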;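 further: all wells also contain fluconazole at 8 µg/ml as a sub-toxic cotreatment; 0% = median of DMSO wells and 100% = median of geldanamycin control wells; wells of about 8 µL received 7.5 nL stock; the first replicate is given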
# T cruzi repl = inhibitors of intracellular T. cruzi growth, primary screen, luminescence, NIH3T3 host cells; inhibition, % (test concentration not listed); T. cruzi beta-gal in NIH3T3, 90 h; 300,000 compounds, 1.4% hits;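 active means mean inhibition across valid replicates above about 55%, limit read from the data; inconclusive means mean below that limit but half or more replicates reach it; inactive means mean below it, under half of replicates reach it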;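 further: signal also drops with host cell toxicity which is not excluded here; 0% = plate median of DMSO wells and 100% = zero luminescence signal; higher percent means less beta-gal luminescence so fewer parasites; stock transfer was 50 nL into about 50 µL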
# Ecoli rRNA inh = reduced GFP signal of wild-type E. coli, primary screen, bacterial rRNA inhibitor project, GFP/RFP fluorescence, OD600, single point | E. coli WT GFP vs humanized-ribosome RFP mutants, 24 h; hits give low values; DMSO median 0, no signal -100 | 350,000 compounds, 1.6% hits | AID 720706, 2013 | GFP signal change (wild-type ribosome), % (test concentration not listed);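 active means significant combined selectivity score with lowered wild-type GFP, culture density cut under 30%, mutant RFP and density less affected; inactive means any of these conditions unmet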; further: one replicate is shown; some compounds called inactive have numbers as strong as hits
# Beta cell apopt = inhibitors of cytokine-induced beta cell apoptosis, primary screen, luminescence. INS-1E cytokine-induced death, ATP luminescence, 48 h; percent of positive-control rescue, neutral wells zero. protection from apoptosis, % (concentration not given with the values). 300,000 compounds, 0.8% hits;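 active means all replicates at 75% or more, or half of them and the mean; inconclusive means half reach 75% but not the mean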;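 further: 0% = cytokine-treated negative control wells and 100% = positive control rescue; higher means more ATP so stronger rescue from cytokine killing; wells of about 40 µL received 100 nL stock; the first replicate is given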
# FGF22 binding = binders of human FGF22 protein, primary screen, FGF22 synaptogenesis inhibitor project, biophysical, thermal shift, single point; recombinant FGF22 thermal shift, SYPRO orange fluorescence; percent of sucrose octasulfate shift, DMSO zero; Fibroblast growth factor 22 (Homo sapiens), Q9HCT0; 340,000 compounds, 1.5% hits; calls only at 9.99 µM;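 active means melting point raised past a set limit in the mean and every replicate; inconclusive means no clear call; three in four hits are not shown here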
# Target sequence (Q9HCT0 whole entry, looked up): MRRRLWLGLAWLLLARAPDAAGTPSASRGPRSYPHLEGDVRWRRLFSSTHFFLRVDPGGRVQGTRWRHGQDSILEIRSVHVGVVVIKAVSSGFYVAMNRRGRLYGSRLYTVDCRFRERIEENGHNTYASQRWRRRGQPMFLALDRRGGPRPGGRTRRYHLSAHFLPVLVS
# Ecoli rRNA inh OD600 = second read-out of Ecoli rRNA inh, no call of its own (marks repeat the call); OD600 change, %; measured here: OD600 growth;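 optical density of the mix in the first replicate; 0 = DMSO median and -100 = no signal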
# Ecoli rRNA inh RFP = recorded beside Ecoli rRNA inh, whose call it bears; RFP signal change, %; measured here: RFP humanized mutant strains;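 first replicate; 0 = DMSO median and -100 = no signal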
# Numbers without * were called inactive; i = inactive; u = inconclusive; x = no result given. An excerpt; rates above refer to the full screens.
SMILES,RanGTP-Imp inh,ALR inh,MLL AF4-AF9 inh,Calb FLC,T cruzi repl,Ecoli rRNA inh,Ecoli rRNA inh OD600,Ecoli rRNA inh RFP,Beta cell apopt,FGF22 binding
O=C(Nc1cc(F)ccc1F)N1CCN(c2ccnc3cc(Cl)ccc23)CC1,1.1,-9,-5.1,0,12,-28*,-6.7*,-2.0*,12,i
CC(=O)Nc1nonc1-c1nc2ccccc2n1Cc1nnc(C)o1,-0.8,-2,x,-7,-8,x,x,x,0,x
O=C(C(=O)N1CCc2ccccc2C1)c1c[nH]c2ccccc12,-5.3,14,-2.0,6,5,-13,-15,-5.0,0,i
CCOc1cnc(-c2c(-c3ccccc3Cl)noc2C)o1,1.4,6,-0.9,9,-16,-55,-71,-15,-3,i
CCN(CC)CCCNC(=O)c1nn(-c2ccccc2OC)c(=O)c2ccccc12,-2.0,-3,x,-12,16,x,x,x,-13,x
COc1ccccc1C(=O)N1CCN(Cc2cn[nH]c2-c2ccc(F)cc2F)CC1,1.8,-4,1.1,-12,11,x,x,x,-10,i
Cc1cccc(Nc2nc3ccccc3s2)c1C,1.6,-7,1.9,-7,34,x,x,x,1,i
Cc1ccccc1NS(=O)(=O)c1ccc(C(=O)N2CCC2)cc1,5.4,-1,-7.2,7,1,0,0,1.3,5,i
CCC(=O)Nc1cc2c(cc1C(=O)CC)OCCO2,-4.8,-7,x,u,-3,x,x,x,0,x
CC(C)C(NC(=O)c1c(F)cccc1F)C(=O)NCCc1ccc(S(N)(=O)=O)cc1 (centres undefined),1.6,-5,-1.6,-10,-5,7,11,0.9,-7,i
NS(=O)(=O)c1ccc(CCNC(=O)CCCn2c(=O)[nH]c3ccc(Br)cc3c2=O)cc1,x,0,-1.4,-4,10,20,10,2.6,2,i
O=C(C1CCCCC1)N1CCCC(c2nc3c(nnn3Cc3ccccc3)c(=O)[nH]2)C1 (centres undefined),-0.4,-8,x,-7,-2,x,x,x,4,x
CC1CCCN(c2ncnc3c2cnn3-c2ccc(Cl)cc2)C1 (centres undefined),-0.8,-8,-3.4,-2,23,6,10,-2.5,3,i
Cc1ccc(-c2nnc(SCC(=O)NNC(=O)COc3cccc(C)c3)n2C)cc1,0.3,1,x,10,-10,x,x,x,-3,x
CN(C)c1ccc(-c2nnc(-c3ccccc3F)o2)cc1,0.8,-2,-5.7,-1,20,-2,5,-1.4,-3,i
COCCCNC(=O)Cn1nc(-c2ccc(C)cc2)ccc1=O,-3.7,-4,x,16,-6,x,x,x,-4,x
COc1ccccc1-n1ccnc1SCC(=O)NC(C)(C)C,-2.5,18,-3.1,3,-11,21,19,2.8,-2,i
Cc1cnc(NC(=O)Nc2ccc(OCc3ccccc3)cc2)c(Br)c1,-0.1,17,-0.6,-6,20,13,15,0.1,-4,i
NS(=O)(=O)c1ccc(CCNS(=O)(=O)c2ccccc2)cc1,4.1,-6,1.5,15,-28,3,4,-1.3,-6,i
Cc1cc(-c2ccccc2)n(-c2ccc(C(=O)NC(C)C)cc2)n1,-4.4,-9,x,-7,-1,x,x,x,4,x
CSc1nc(N(C)C)nc(N(C)C#N)n1,-5.7,x,-0.4,-5,-6,8,5,-2.1,2,i
NC(=O)C1(N2CCCCC2)CCN(S(=O)(=O)c2cc(Cl)ccc2Cl)CC1,3.3,1,2.5,-5,14,-3,-3,5.6,-3,i
CCN(CC)CCN(C(=O)c1ccc2c(c1)CCCC2)c1nc2ccc(F)cc2s1,1.9,-15,-5.2,-8,55*,-23*,1.6*,2.3*,-2,i
CC(C)(O)C#Cc1ccc(CN2CCN(Cc3ccccc3)C(CCO)C2)cc1 (centres undefined),1.0,-4,0.5,30,0,x,x,x,-7,x
CN(C)c1ccc(CN(C(=O)/C=C/c2ccccc2Cl)C2CCS(=O)(=O)C2)cc1 (centres undefined),-4.0,-6,6.8,45,21,0,11,4.8,1,i
CC(C)(C)OC(=O)COc1ccc(/C=N/NC(=O)CN2CCCCC2)cc1,2.8,x,1.5,2,3,2,3,5.9,x,i
C#CCOCCOCCOCCNc1nc(N2CCN(C(=O)[C@H](Cc3ccc(O)cc3)n3cc([C@@H](N)C(C)CC)nn3)CC2)nc(N2CCN(C(=O)[C@H](Cc3cc4ccccc4[nH]3)n3cc([C@@H](N)C(C)CC)nn3)CC2)n1 (some centres undefined),6.9,-4,x,9,-15,x,x,x,13,x
O=C(NCCc1ccc(Cl)cc1)c1ccc(CNc2c(N3CCOCC3)c(=O)c2=O)cc1,3.0,x,-0.6,7,-4,12,10,3.9,-9,i
CC1(C)NC(=O)N(CC(=O)OCC(=O)Nc2sccc2C#N)C1=O,1.0,-1,-3.5,-17,4,14,5,-4.8,-3,i
O=C1CC(c2ccccc2)=Nc2ccccc2N1Cc1ccccc1,-0.6,4,3.4,-1,17,-14,-15,-2.0,-8,i
Cn1nnnc1SCC(=O)N1CCc2ccccc21,-2.4,2,7.5,-5,0,11,10,7.6,-12,i
NS(=O)(=O)c1ccc(CCNC(=O)CN2CCN(Cc3cccc(C(F)(F)F)c3)CC2)cc1,3.3,-3,2.4,6,10,7,2,-2.8,-2,i
COCC(=O)N(Cc1cc2cc(C)ccc2[nH]c1=O)c1ccc(C)c(C)c1,-0.6,-13,0.0,2,2,-2,-1,1.1,-10,i
Cc1cc(S(=O)(=O)N2CCN(c3ccccn3)CC2)c(C)cc1Cl,-1.9,2,-1.2,-7,0,-26,-34,-18,-2,i
Cc1cc(C)nc(-n2nc(C)cc2NC(=O)c2ccc(F)cc2F)n1,2.7,-1,-0.2,-33,18,19,14,3.0,3,i
OC(CCCCN1CCCCC1)c1ccccc1 (centres undefined),-1.4,-2,x,-18,2,x,x,x,-5,x
O=C(c1ccc(S(=O)(=O)N2CCOCC2)cc1)N1CCOCC1,-3.0,-6,-2.9,10,-14,13,20,-1.1,x,i
Cc1csc(Sc2ccc(S(=O)(=O)N3CCCC3)cn2)n1,u,-4,-1.4,-14,0,-4,-6,-1.4,5,i
O=C(C1CCCN1S(=O)(=O)c1cccc2cccnc12)N1CCc2ccccc2C1 (centres undefined),-2.0,27,1.2,-4,-2,-4,-7,0.1,-4,i
CC(=O)c1c(OC(=O)c2cccc(Cl)c2)c2ccccc2n1C,3.3,x,-5.7,2,-15,9,-7,0.1,-5,i
COC(=O)c1ccc(CS(=O)(=O)c2ccc(C)cc2)o1,-3.8,-11,0.2,5,-9,3,5,-0.7,-3,i
Cc1ccc(C(=O)Nc2ccc3c(c2)C(=O)N(C)C3=O)c(C)c1,-3.4,x,7.5,-4,-8,9,12,-1.7,-1,i
OC(COc1ccc(CN2CCSCC2)cc1)CN1CCCCC1 (centres undefined),6.9,-5,12,14,1,7,0,8.4,-5,i
COC(=O)CC1Oc2ccc(C)cc2NC1=O (centres undefined),-0.9,-2,-1.0,-2,-13,10,14,-0.7,-6,i
CCOC(=O)C1C(=O)NC(SCC(=O)OC)=C(C#N)C1c1ccccc1OCC (centres undefined),u,-18,3.3,6,-2,6,3,-4.8,-3,i
Cc1ccc(C(=O)Nc2ccccc2N2CCOCC2)cc1S(=O)(=O)N1CCOCC1,x,-15,5.0,x,x,-10,-7,3.2,0,i
Cc1ccc(C(=O)NNC(=O)C2CCCN(c3ncccn3)C2)cc1 (centres undefined),5.0,-8,x,-5,-16,x,x,x,x,x
CC(C)c1ccccc1NC(=O)COC(=O)Cc1ccsc1,3.9,x,-0.8,8,-23,-1,3,-2.0,-1,i
CCOc1ccccc1NC(=O)CSc1nnc(Cn2c(=O)sc3ccccc32)n1C,x,-3,-2.3,x,x,-3,-3,-2.9,0,i
Cc1ccc(-c2cc(C(=O)OCC(=O)Nc3ncc(C(F)(F)F)cc3Cl)c3ccccc3n2)cc1,-0.5,1,x,7,6,x,x,x,4,x
# The results go on:
SMILES,RanGTP-Imp inh,ALR inh,MLL AF4-AF9 inh,Calb FLC,T cruzi repl,Ecoli rRNA inh,Ecoli rRNA inh OD600,Ecoli rRNA inh RFP,Beta cell apopt,FGF22 binding
O=C(O)CSCc1cn2cc(Cl)ccc2n1,0.9,1,x,13,-12,x,x,x,0,x
O=C(Cc1ccccc1)c1ccc2c(c1)OCCO2,-0.8,1,-0.3,-39,-8,-5,-6,-1.7,-3,i
C/C(Cc1ccccc1)=N\NC(=O)c1cc(C(C)(C)C)[nH]n1,0.1,33,0.6,-3,-6,5,10,0.4,2,i
Oc1cc2ccccc2cc1-c1n[nH]c(=S)n1Cc1ccco1,-2.3,x,-4.8,50,-14,-54,-70,-14,1,i
S=C(NC1CCCCC1)N1CCc2[nH]c3ccccc3c2C1,3.6,-21,0.1,-5,11,6,-4,-3.1,5,i
COc1ccccc1N1CCN(C(=O)c2ccc3c(c2)CCN3S(=O)(=O)c2ccccc2)CC1,-2.4,2,6.8,10,15,-10,-6,5.3,-6,i
CCOC(=O)c1[nH]c2ccccc2c1NC(=O)c1ccc(S(=O)(=O)N2CCCCC2)cc1,1.3,-6,6.5,9,8,2,15,-0.7,x,i
Cn1nccc1C(=O)Nc1cc(Cl)ccc1Cl,1.7,-6,-0.5,-3,-18,-10,-2,-3.7,27,i
COc1cccc(N2CCN(S(=O)(=O)c3ccc4nc(-c5ccccc5)[nH]c4c3)CC2)c1,3.1,-4,x,-8,11,x,x,x,12,x
CCOC(=O)[C@H]1[C@H]2COc3ccccc3[C@@H]2N2C(=O)c3cc(OC)ccc3NC(=O)[C@@]12C,x,x,6.5,x,x,-4,-9,8.8,-3,i
CC(C)Oc1ccccc1C(=O)NC(CO)C(=O)O (centres undefined),-3.0,2,-4.1,13,-15,4,-1,-3.4,-3,x
Cn1c(Cn2nnc3ccccc32)nnc1SCC(=O)N1CCc2ccccc21,-1.3,0,-55,-6,20,6,3,6.0,0,i
O=C(NCc1cccc(Cl)c1)C1CCC(=O)N(CCN2CCOCC2)C1 (centres undefined),-1.7,-4,-2.0,-1,-4,9,12,0.6,-1,i
COc1ccc(C)cc1N(CC(=O)N1CCOCC1)S(C)(=O)=O,0.1,x,-2.8,12,0,25,15,2.6,2,i
Oc1ccc2oc3c(c2c1C=NCc1ccncc1)CCCC3,-1.2,-10,-3.1,22,-7,3,7,7.6,-5,i

# High-throughput results (PubChem)
